KCNQ2 block – KCNQ2 channel blockers in CHO-K1 cells – cell-based, FluxOR thallium flux, B-score, primary screen (AID 2156). O88943. 20 min; active compounds read low; only compounds with negative scores are shown here; some inactives read as strong as hits. B-score at 10 µM. hit rate 1.1% among 310,000;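 active means fluorescence ratio B-score at most minus 3 library SDs, with starting brightness B-score within 2 library SDs, cut at about -5.5 in these data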
Target sequence (O88943 whole entry, looked up): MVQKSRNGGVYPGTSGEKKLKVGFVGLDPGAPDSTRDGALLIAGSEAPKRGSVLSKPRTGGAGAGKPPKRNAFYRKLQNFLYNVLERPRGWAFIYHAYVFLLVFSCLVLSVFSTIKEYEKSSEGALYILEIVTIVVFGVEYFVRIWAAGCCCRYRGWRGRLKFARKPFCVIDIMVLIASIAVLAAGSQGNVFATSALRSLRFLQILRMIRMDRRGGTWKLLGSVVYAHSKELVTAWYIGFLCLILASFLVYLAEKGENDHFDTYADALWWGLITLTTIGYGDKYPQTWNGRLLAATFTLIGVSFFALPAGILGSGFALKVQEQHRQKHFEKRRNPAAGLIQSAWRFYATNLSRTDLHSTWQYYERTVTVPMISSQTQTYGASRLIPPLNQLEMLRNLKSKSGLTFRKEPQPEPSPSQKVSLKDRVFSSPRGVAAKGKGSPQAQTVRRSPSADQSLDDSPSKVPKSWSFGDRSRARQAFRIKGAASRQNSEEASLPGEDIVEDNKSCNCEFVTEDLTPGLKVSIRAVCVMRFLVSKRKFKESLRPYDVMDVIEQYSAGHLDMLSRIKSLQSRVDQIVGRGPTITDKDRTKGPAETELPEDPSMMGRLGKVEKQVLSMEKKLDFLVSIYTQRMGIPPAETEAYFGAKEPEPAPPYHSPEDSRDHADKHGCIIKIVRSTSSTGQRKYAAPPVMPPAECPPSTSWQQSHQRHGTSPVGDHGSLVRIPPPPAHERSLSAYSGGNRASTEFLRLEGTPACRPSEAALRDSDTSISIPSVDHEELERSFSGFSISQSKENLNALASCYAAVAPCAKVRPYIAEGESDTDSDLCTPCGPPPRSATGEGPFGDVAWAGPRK
KCNQ2 block baseline – further read-out of KCNQ2 block, marked with its call; B-score; measured here: initial fluorescence intensity artifact check;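 brightness before thallium and not channel activity; 0 = typical well and far values either way flag optical interference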
* marks the source's active call; other numbers are inactive results; i = inactive.

KCNQ2 block	KCNQ2 block baseline	SMILES
i	0.7	COc1ccc(NC(=O)CS(=O)CC(=O)N2CCN(C3CCCC3)CC2)cc1 (configuration not stated)
i	-1.9	COc1ccccc1/C=N\NC(=O)c1ccc(COc2ccc(C)c(C)c2)o1
i	-1	Cc1cc(C)n(-c2ncc(C#N)cn2)n1
i	1.4	CS(=O)(=O)c1ccc(C(=O)NCc2ccc(F)cc2)cc1
i	1.9	O=C(c1ccccc1C(=O)N1CCN(c2ccccc2)CC1)N1CCN(c2ccccc2)CC1
i	0.1	Cc1ccc(S(=O)(=O)N2CCCC(CCC(=O)NCc3ccccc3F)C2)s1 (configuration not stated)
i	-1.2	COc1ccc(-c2nnc(SCC(=O)NC(C)c3ccccc3)o2)cc1OC (configuration not stated)
i	1.5	CCOC(=O)Cc1csc(NC(=O)CSc2nnc(-c3ccc(NS(=O)(=O)CC)cc3)o2)n1
i	1.4	COc1ccc2[nH]cc(CCNC(=O)CCC3CCCCC3)c2c1
i	-0.72	CCCCNS(=O)(=O)c1ccc2nc(SCC(=O)Nc3cccc(F)c3)[nH]c2c1
i	-0.53	CSc1nnc(CSCc2ccc(Cl)cc2Cl)n1-c1ccccc1
i	0.05	CCOC(=O)c1cc(C(C)C)sc1NC(=O)COC(=O)c1nccnc1N
i	3.4	CN(C)c1ccc(/C=C(/C(=O)c2ccc(Cl)cc2Cl)n2cncn2)cc1
i	-0.55	COC(=O)/C(=C\c1c(OC)cc(OC)cc1OC)C(=O)c1ccc2c(c1)OCO2
i	-1.2	O=C(N/N=C/c1ccco1)c1cc(-c2ccccc2)nc2ccccc12
i	-0.37	COc1ccc2[nH]c(C)c(CN3CCC(C)CC3)c(=O)c2c1
i	-0.94	COc1ccc(Nc2nnc(-c3ccc(C(=O)NCCO)cc3)c3ccccc23)cc1
i	0.06	Cc1onc(-c2ccccc2Cl)c1C(=O)Nc1ccc(S(=O)(=O)N2CCCC2)cc1
i	0.51	O=C(Nc1nc2cc3c(cc2s1)OCCO3)c1cccc(N2C(=O)CCC2=O)c1
i	0.02	Cc1ccsc1CN1CC(=O)N(c2c(C)cccc2C)C1=S
i	0.12	O=C(NC(=S)N(Cc1ccccc1)Cc1ccccc1)C1CCCCC1
i	-1.3	O=C(Nc1ccc2c(c1)CCCN2C(=O)c1cccs1)c1ccccc1
i	0.71	O=C(Nc1ccc(S(=O)(=O)N2CCCCC2)cc1)c1ccccc1F
i	-0.05	Cc1ccc2cccc(N=Cc3c(C)[nH]n(-c4ccccc4)c3=O)c2n1
i	0.95	COc1ccc(CN2CCNC(=O)C2CC(=O)NC2CCCCCCC2)cc1OC (configuration not stated)
i	-2	Cc1cc(OCCN2CCOCC2)ccc1Cl
i	-0.55	CCCNC(=O)NC(=O)CSc1nc(C)cs1
i	0.09	CCN(CC)c1ccc(NS(=O)(=O)c2ccc(OC)cc2)cc1
i	-2.4	Cc1ccc(S(=O)(=O)N(C)C)cc1NC(=O)c1c(-c2c(F)cccc2Cl)noc1C
i	0.18	CCOC(=O)N1CCC(N2CCCC(C(=O)c3cc(C)c(OC)c(C)c3)C2)CC1 (configuration not stated)
i	-0.51	COc1cc2nc(Cl)nc(NCCO)c2cc1OC
i	0.44	Cc1ccc(NC(=O)C(C)N2CCCC2)cc1Cl (configuration not stated)
i	-0.24	COc1cccc(C(O)c2nc3ccccc3n2C)c1 (configuration not stated)
i	0.3	CC(C)CCN(C(=O)c1ccc(N2CCCC2=O)cc1)c1c(N)n(Cc2ccccc2)c(=O)[nH]c1=O
i	0.9	COC(=O)c1ccc(NC(=O)CSc2nncn2-c2cccnc2)cc1
i	-0.65	O=C(COC(=O)c1n[nH]c2ccccc12)c1cc(F)ccc1F
i	1.3	CCOC(=O)COc1cccc2c(=O)n(CC(=O)N3CCCc4ccccc43)ccc12
i	2.6	Cc1onc(-c2ccccc2)c1C(=O)N/N=C/c1cccc(O)c1
i	-0.41	O=C(Nc1ccc(N2CCOCC2)c(F)c1)c1ccncc1
i	0.6	COc1ccc(C(=O)NNC(=S)NC(=O)C(C)(C)C)cc1
i	0.04	COc1cccc2c(=O)n(CC(=O)NCCc3ccccc3)ccc12
i	-1.6	COc1ccc(-c2cc(C)no2)cc1S(=O)(=O)N(C)Cc1ccco1
i	1.2	COc1ccc2c(c1)c1nnc(SCC(=O)Nc3ccccc3F)nc1n2C
i	-1.1	COCCOc1ccc(C(F)(F)F)cc1N
i	-1.3	COc1cccc(C2(O)CCN(CC(=O)NCC3CC3)CC2)c1
i	-0.25	c1cnc(SCCOc2ccc3c(c2)CCC3)nc1
i	-2.1	COc1cc2nc(Nc3ccc(C)c(C)c3)nc(N)c2cc1OC
i	2.5	COc1cc(S(=O)(=O)NCCc2ccc3c(c2)OCO3)ccc1-n1cnnn1
i	0.36	COc1ccc(OC)c(-n2c(SCC(=O)NCc3ccco3)nnc2-c2c[nH]c3ccccc23)c1
i	-0.01	CC(C)c1ccccc1NC(=S)NCc1nc2ccccc2[nH]1
i	1.7	O=C(CSc1nnc2c(n1)[nH]c1ccc(F)cc12)NCc1ccc(F)cc1
i	-2.4	O=[N+]([O-])c1ccccc1CNC(Cc1ccccc1)c1ccccc1 (configuration not stated)
i	-0.84	O=c1c2ccccc2nc2c3ccccc3c(Cl)nn12
-7.4*	0.51*	O=C(CCN1CCOCC1)c1ccc(Br)cc1
i	2.8	Cc1ccccc1-c1nnc(SCC#N)o1
i	0.81	COC(=O)c1ccccc1NC(=O)c1cc2nc(C3CC3)cc(C(F)(F)F)n2n1
i	-1.7	C/C(=N\NC(N)=O)c1ccccc1Cl
i	-3	CN1C(=O)c2cccc3c(Cl)ccc(c23)C1=O
i	1.9	COc1ccc(CCNC(=O)CSCC(=O)Nc2ccccc2)cc1OC
i	-0.14	Cc1ccccc1-n1nnnc1SCc1ncc(-c2ccccc2)o1

Gathered by group: the entries above with two or more sulfur atoms.
KCNQ2 block	KCNQ2 block baseline	SMILES
i	0.1	Cc1ccc(S(=O)(=O)N2CCCC(CCC(=O)NCc3ccccc3F)C2)s1 (configuration not stated)
i	1.5	CCOC(=O)Cc1csc(NC(=O)CSc2nnc(-c3ccc(NS(=O)(=O)CC)cc3)o2)n1
i	-0.72	CCCCNS(=O)(=O)c1ccc2nc(SCC(=O)Nc3cccc(F)c3)[nH]c2c1
i	-0.53	CSc1nnc(CSCc2ccc(Cl)cc2Cl)n1-c1ccccc1
i	0.02	Cc1ccsc1CN1CC(=O)N(c2c(C)cccc2C)C1=S
i	-0.55	CCCNC(=O)NC(=O)CSc1nc(C)cs1

(further entries)
KCNQ2 block	KCNQ2 block baseline	SMILES
i	2.8	Cn1c(=O)c2c(nc(CN3CCc4ccccc4C3)n2Cc2ccccc2F)n(C)c1=O
i	-0.08	O=C(Nc1ccccc1)N(CCCN1CCOCC1)Cc1cccs1
i	0.07	CC1C=CCC2C(=O)N(c3ccc(Cl)cc3O)C(=O)C12 (configuration not stated)
i	-0.23	Cc1ccccc1NC(=O)COc1ccccc1C
i	1.1	C=CCN1C(=O)S/C(=C\c2ccc(N3CCOCC3)cc2C)C1=O
-6.5*	-1.1*	CCN1CCN(CCNC(=O)c2ccc3c(c2)N(Cc2ccc(F)cc2)C(=O)/C(=C/c2ccccc2)S3)CC1
i	0.01	CCOC(=O)c1cc(C#N)c(Oc2ccccc2)nc1-c1ccccc1
i	-0.32	Cc1ccc(-n2cc(CN(C)Cc3nccn3C)c(-c3cccc(C)c3)n2)cc1
i	-1.5	COc1cccc2cc(CC(=O)c3ccc(C)c(C)c3)c(=O)oc12
i	0.37	COC(=O)C(C)NC(=O)C12CC3CC(C1)CC(c1ccc(C)cc1)(C3)C2 (configuration not stated)
i	-0.89	CCN(C(=O)CN1C(=O)COc2ccc(S(=O)(=O)N3CCCCCC3)cc21)c1cccc(C)c1
i	4.2	N#CC(c1nc2ccccc2nc1N1CCCC1)S(=O)(=O)c1ccccc1 (configuration not stated)
i	4.1	COc1cc(C(=O)NCCCn2ccnc2)cc(OC)c1OC
i	-0.85	COc1cccc(C(=O)COC(=O)c2ccc(NC(=O)c3ccccc3)cc2)c1
i	-0.49	O=C(Nc1cccc2ncccc12)c1ccccc1Cl
i	0.49	Cc1noc(C)c1-c1nc(CSc2ccc(Cl)cc2)no1
i	0.21	Cc1cc(Oc2ccccc2)nc(N)n1
i	-0.06	CCOCC(=O)N1CCN(Cc2ccc3c(c2)OCO3)CC1
i	-0.06	COC(=O)CCCN1C(=O)c2cccc3cccc(c23)C1=O
i	-0.17	CC(=O)N/C(=C\c1ccc2c(c1)OCO2)C(=O)NC(C(=O)O)c1ccccc1 (configuration not stated)
i	1	N#CC1=C(Nc2ccccc2)SC=C(c2ccccc2)N=C1N1CCOCC1
-6.3*	-3.5*	CCC(C)(C)NC(=O)CSc1nc(Cc2ccccc2)nc2ccccc12
i	-0.03	Cc1cc(C)nc(OC(=O)c2c(Cl)cc(Cl)cc2Cl)n1
i	-0.68	O=C(CCN1CCN(c2ccc(Cl)cc2)CC1)Nc1nccs1
i	-1.1	CCOCCCNC(=O)C(NC(=O)c1ccccc1O)c1ccc(Cl)cc1 (configuration not stated)
i	-0.17	CCOc1ccc(NC(=O)c2c(NC(=O)CN3CCN(C)CC3)sc3c2CCC3)cc1
i	0.07	COC1CCCCC1Nc1cc(C)ccc1C (configuration not stated)
i	1.4	O=C(NCCNCCO)c1c(O)c2cccc3c2n(c1=O)CCC3
i	-1.2	COC(=O)c1cccc(NC(=O)c2cc(OC)c(OC)c(OC)c2Br)c1
i	0.4	C=CCN1C(=O)S/C(=C\c2ccc3c(c2)n(C)c(=O)n3C)C1=O

Part of the list above, tab-delimited.
compound	KCNQ2 block	KCNQ2 block baseline
O=C(Nc1cccc2ncccc12)c1ccccc1Cl	i	-0.49
Cc1noc(C)c1-c1nc(CSc2ccc(Cl)cc2)no1	i	0.49
Cc1cc(Oc2ccccc2)nc(N)n1	i	0.21
CCOCC(=O)N1CCN(Cc2ccc3c(c2)OCO3)CC1	i	-0.06
COC(=O)CCCN1C(=O)c2cccc3cccc(c23)C1=O	i	-0.06
CC(=O)N/C(=C\c1ccc2c(c1)OCO2)C(=O)NC(C(=O)O)c1ccccc1 (configuration not stated)	i	-0.17
N#CC1=C(Nc2ccccc2)SC=C(c2ccccc2)N=C1N1CCOCC1	i	1

Next part:
KCNQ2 block	KCNQ2 block baseline	SMILES
i	1.5	O=C(NCCCn1ccnc1)c1ccc(Br)cc1
i	0.86	Cc1nc2nc(SCc3ccccc3)[nH]n2c(=O)c1C
i	22	Cc1ccc2[nH]c(C)c(/C=C/c3cc[n+](C)cc3)c2c1
i	-0.01	OC(CNCc1ccccc1F)(c1ccc(F)cc1)c1ccc(F)cc1
i	1.2	COc1ccc(N(CC(=O)NCC2CCCO2)S(=O)(=O)c2c(C)noc2C)cc1 (configuration not stated)
i	-0.15	Cc1ccsc1/C=N/Nc1ccc(F)cc1F
i	-1.1	O=C(Nc1ncn[nH]1)c1c(Cl)ccc(Cl)c1Cl
i	0.01	O=C(Nc1ccccc1C(=O)Nc1ccncc1)c1ccc([N+](=O)[O-])cc1
i	-0.93	Cc1ccc(-c2cc([C@H]3[C@@H]4C=CCC[C@@]4(C)C(=O)N3Cc3ccccc3)ccc2F)cc1
i	0.96	Cn1c(SCC(=O)NC(C)(C)C)nc(O)cc1=O
i	0.87	Cc1cccc(C)c1N(CC(=O)N1CCN(C)CC1)S(C)(=O)=O
i	-0.12	COc1ccc(C2C=C(c3ccccc3)Nc3ncnn32)cc1 (configuration not stated)
i	-0.62	O=C(CSCc1ccc(Cl)cc1Cl)Nc1c[nH]c(=O)[nH]c1=O
i	0.28	CCOc1ccc(Cl)cc1S(=O)(=O)N1CCC(C(=O)NC2CC2)CC1
i	-0.18	O=C(Nc1ccccc1N1CCN(C(=O)c2ccccc2)CC1)c1ccc2c(c1)OCO2
i	-1.3	CCOC(=O)c1[nH]c(C)c(C(=O)NC2CCN(C(=O)OCC)CC2)c1C
i	-0.26	O=C(c1cccs1)N(Cc1ccco1)C1CCS(=O)(=O)C1 (configuration not stated)
i	-1.2	CCc1ccc2[nH]c(=O)c(CN(CCN3CCCC3)C(=O)NC3CCCCC3)cc2c1
i	1.1	COc1ccc(CCNC(=O)c2ccc([N+](=O)[O-])cc2Cl)cc1OC
i	-0.13	COc1ccc(C(=O)NC(=S)N(CCC(C)C)c2c(N)n(Cc3ccccc3)c(=O)[nH]c2=O)cc1
i	-0.04	CC1(C)C(=O)OC(/C=C/c2cccc([N+](=O)[O-])c2)C(C)(C)C1=O (configuration not stated)
i	-0.05	O=C(Nc1ccccc1N1CCCCC1)c1ccc(-c2cccc(Cl)c2)o1
i	-1.2	COc1cc(-c2nnc(-c3ccccc3)o2)cc(OC)c1OC
i	2.1	O=C(CCn1c(=O)sc2ccccc21)Nc1nc2ccccc2s1
i	0.44	O=C(NC(c1ccccc1)c1ccccc1)C1CCCO1 (configuration not stated)
i	1.1	COc1ccc(OC)c(NC(=O)NNS(=O)(=O)c2ccc(C)cc2C)c1
i	-0.54	COC(=O)c1ccc(-c2cc(CC3(C(=O)OC)CCN(C(=O)OC(C)(C)C)CC3)on2)cc1
i	2	CCOC(=O)c1cccnc1NC(=O)c1ccccc1
i	1.1	O=C(Nc1nc2ccc(S(=O)(=O)N3CCOCC3)cc2s1)c1cccs1
i	0.09	COc1cc(O)c(C(CC(=O)N2CCCC2)c2ccc(N(C)C)cc2)c(OC)c1 (configuration not stated)
i	0.14	CCCc1cc(C(=O)Nc2cccc(Cl)c2C)no1
i	-3.1	COc1ccc(CNC(=O)C(Cc2ccccc2)n2cccc2)cc1 (configuration not stated)
i	0.39	CC(C)Cn1c(N)c(C(=O)CSc2ncnc3sc4c(c23)CCCC4)c(=O)n(C)c1=O
i	0.33	O=C(NNC(=O)c1ccccn1)c1cccc([N+](=O)[O-])c1
i	-0.72	O=C(Nc1cccc(OC(=O)c2cccnc2)c1)c1cccnc1
i	0.88	COc1ccc(Nc2nnc(SCc3cc(=O)n4ccsc4n3)s2)cc1
i	-0.4	COc1ccccc1CNS(=O)(=O)c1c(C)noc1C
i	2.2	C/C(=N\OCC(=O)Nc1ccc(Br)cc1)c1cccs1

Bioassay records (PubChem)

An excerpt, so the mix of outcomes need not match the whole.
